Screening results deposited in PubChem BioAssay by National Center for Advancing Translational Sciences (NCATS).
Rango release inh: prevents RanGTP from dissociating the Rango-importin beta complex; O95149+P62826; Biochemical FRET Rango-importin beta, RanGTP-induced dissociation; Potency, µM (titrated, usually from 46.1 µM), for the others: at the top dose activity change, negative = inhibition; actives 0.071% (n = 340,000); AID 540253; active means falling FRET ratio curve, often poorly fitted, with flat reads before Ran was added; inconclusive means other falling curves, or compound fluorescence or quenching; inactive means flat or rising ratio curve;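 note: potency is the fitted concentration of half-maximal effect; % of control where 0% means no effect; nearly all actives have a fitted effect of over 45% in size; -100% = wells without RanGTP and RCC1; the record marks most hits as doubtful in a second field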
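Rango FRET biosensor (snurportin-1 IBB flanked by N-terminal EYFP and C-terminal CFP10) at 0.1 uM, with 0.25 uM importin beta in PBS, 1mM DTT, 0.02% Tween-20, 0.1% BSA. 0.6 uM Ran, 2mM GTP and 0.2 uM RCC1 were then added for 45 min at room temperature. Inhibition read as loss of FRET rise.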
GLA inh pH 4.5: blocks human alpha-galactosidase A at pH 4.5. P06280. AID 1467. purified enzyme, 4-MU-alpha-Gal fluorescence, pH 4.5. activity change, negative = inhibition, % at 105 µM. 230,000 tested, under 10 active; inconclusive = small, poorly fitted or top-dose-only inhibition, or a rising curve; inactive = flat fitted curve, though single readings scatter; no compound was filed as active;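 note: 0% = full activity with enzyme and -100% = basal without enzyme; dose as in the result columns while the protocol names 77 µM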
miR-21 FLuc: miR-21 reporter, rising signal; HeLa miR-21 FLuc reporter, luciferase, 48 h; Potency, µM (highest dose often 38.3 µM), for inactives: at the top dose reporter change, positive = more light; 340,000 tested, under 10 active; active = well fitted rising curve with a large enough effect; inconclusive = small, poorly fitted or top-dose-only effect; inactive = no such curve, though single readings can be large or run the other way;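 note: % of control where 0% means no effect; miR-21 action dims this reporter so a rising signal means less miR-21 action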
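HeLa miR-21-FLuc reporter line, endogenous miR-21; 2000 cells/well in DMEM/10% FBS; compound titration up to ~40uM final, 48 h, 37 degree Celsius; luciferase detection reagent, 15 min lysis, CCD luminescence.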
Rango complex inh: Rango-importin beta binding inhibition; Q14974; Rango CFP/YFP FRET sensor + importin beta, 45 min; Potency, µM (top dose mostly 92.2 µM), inactives show at the top dose inhibition of complex formation; actives 0.031% (n = 340,000); active = rising FRET ratio curve, often small or poorly fitted; inconclusive = mostly compound fluorescence or quenching in the first reads; inactive = flat curves in all reads;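 note: potency is the fitted concentration of half-maximal effect; 0% = DMSO wells and 100% = buffer wells lacking importin beta; nearly all actives have a fitted effect of over 15% in size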
Target sequence (Q14974 whole entry, looked up): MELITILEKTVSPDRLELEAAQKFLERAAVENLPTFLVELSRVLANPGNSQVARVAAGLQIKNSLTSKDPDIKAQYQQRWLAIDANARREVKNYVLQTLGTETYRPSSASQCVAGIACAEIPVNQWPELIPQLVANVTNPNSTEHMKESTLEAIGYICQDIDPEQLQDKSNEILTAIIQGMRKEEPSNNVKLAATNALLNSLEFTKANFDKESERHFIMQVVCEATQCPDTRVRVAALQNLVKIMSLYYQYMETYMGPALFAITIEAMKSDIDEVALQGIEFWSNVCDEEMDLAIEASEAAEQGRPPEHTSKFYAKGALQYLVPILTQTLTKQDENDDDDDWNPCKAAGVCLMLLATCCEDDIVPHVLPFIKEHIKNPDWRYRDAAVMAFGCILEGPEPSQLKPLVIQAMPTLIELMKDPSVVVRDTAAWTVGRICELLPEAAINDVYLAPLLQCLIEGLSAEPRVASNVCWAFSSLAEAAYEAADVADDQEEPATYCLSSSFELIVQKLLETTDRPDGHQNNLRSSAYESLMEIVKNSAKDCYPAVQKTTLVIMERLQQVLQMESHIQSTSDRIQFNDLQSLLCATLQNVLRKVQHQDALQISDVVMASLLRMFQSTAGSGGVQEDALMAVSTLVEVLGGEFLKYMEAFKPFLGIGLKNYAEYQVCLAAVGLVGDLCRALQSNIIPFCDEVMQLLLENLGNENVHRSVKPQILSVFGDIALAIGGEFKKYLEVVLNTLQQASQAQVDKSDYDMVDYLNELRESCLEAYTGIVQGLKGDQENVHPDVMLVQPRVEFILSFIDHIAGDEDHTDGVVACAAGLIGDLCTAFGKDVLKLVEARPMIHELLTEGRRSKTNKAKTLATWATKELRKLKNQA
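FRET biosensor Rango (snurportin 1 IBB between N-terminal EYFP and C-terminal Cerulean), 50 nM in PBS/1 mM DTT/0.02% Tween-20/0.1% BSA, preincubated 5 min RT with compound; 0.125 microM importin beta added, 45 min RT, CFP/YFP FRET ratio read.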
Active calls of the source: *; ? = inconclusive; / = no result given; & = joins results of further samples.

Rango complex inh,GLA inh pH 4.5,Rango release inh,miR-21 FLuc,Structure
-4.7%,2,-5%,1%,COc1ccccc1N1CCN(C(=O)CN(C)S(=O)(=O)c2ccc3c(c2)c(=O)n(C)c(=O)n3C)CC1
5.1%,2,5%,-2%,C1CCC(Nc2nc3nonc3nc2N2CCSCC2)C1
-0.3%,6,-4%,12%,CCn1c2ccccc2c2cc(NC(=O)c3cccc([N+](=O)[O-])c3C)ccc21
?,-18,-23%,-1%,COCCNc1cc(N)c([N+](=O)[O-])cc1[N+](=O)[O-]
-3.6%,-13,-8%,0%,Cc1ccc(C)c(NC(=S)N(C)CCO)c1
-2.4%,-4,-2%,-1%,CCC(CC)C(=O)Nc1ccccc1-n1cccc1
-2.0%,/,7%,-1%,COc1ccc(NS(=O)(=O)c2cccc(C(=O)NCC3(N4CCOCC4)CCCCC3)c2)cc1
?,-1,-14%,-29%,COc1ccc(OCc2ccc(C(=O)O)cc2)cc1
0.0%,-13,-6%,0%,Cc1c(Cl)cccc1NC(=O)C1CCN(S(C)(=O)=O)CC1
-0.1%&0.2%,4&-7,-12%&6%,-3%&-1%,O=C(O)CC(=O)NC12CC3CC(CC(C3)C1)C2
0.9%,-4,-8%,-3%,COC(=O)CC1C(=O)NCCN1C(=S)Nc1ccccc1 (stereo unspecified)
0.1%,/,-12%,/,CCOC(=O)Nc1c(Cl)[nH]c(=O)n(C)c1=O
-3.4%,-10,-5%,-9%,O=C1CCN(S(=O)(=O)c2ccccc2)C2CCCCC12 (stereo unspecified)
0.9%,1,1%,-1%,O=C(COC(=O)C1CCN(S(=O)(=O)c2cccs2)CC1)NCc1ccc(F)cc1
-1.3%,-3,-23%,?,Cc1ccc(C(=O)c2c(C)oc3c2C(=O)C(=O)c2ccccc2-3)cc1
-2.7%,/,-14%,/,Cc1cc(C)cc(CSc2ccc(S(=O)(=O)N3CCCC3)cn2)c1
-4.9%,/,-25%,-11%,Oc1ccccc1CNc1nccs1
1.9%,/,15%,0%,CC1=CC=CC2=NC(=O)CC(C)(C(=O)N(CC(=O)NC3CCCC3)Cc3ccc(Cl)cc3)N12 (stereo unspecified)
0.6%,/,-5%,-4%,CCn1c(SCC(=O)NC2CCCCC2)nnc1-c1ccco1
1.2%,-6,-15%,0%,Cc1ccc(NC(=O)COC(=O)c2cccnc2Cl)cc1S(=O)(=O)N1CCCCC1
6.2%,0,21%,?,COc1ccc(C(=O)C(CCC(CNC(C)(C)C)C(=O)c2ccc(OC)cc2)CNC(C)(C)C)cc1 (stereo unspecified)
-0.7%,/,-21%,/,COc1ccc(C(=O)NCC(c2ccco2)N(C)C)cc1S(=O)(=O)NCc1ccc(Cl)cc1 (stereo unspecified)
2.4%,/,-28%,16%,CC(=O)c1ccccc1OCc1ccc(S(=O)(=O)Cc2ccccc2)cc1
-3.7%,-6,-2%,-7%,O=C(C1CCN(S(=O)(=O)c2cccc3cccnc23)CC1)N1CCCC1
-0.9%,/,-7%,/,CC1CC(C)CN(C(=O)COC(=O)CCC(=O)c2cccs2)C1 (stereo unspecified)
-1.3%,/,-3%,/,O=C(NCc1cccs1)c1cc(-c2ccccc2)nn1CC1CC(c2cccc([N+](=O)[O-])c2)=NO1 (stereo unspecified)
-1.9%,-3,14%,-1%,Cc1cccc(C(=O)N2CCC(n3nnc4cc(F)ccc43)CC2)c1
0.9%,6,3%,-10%,O=[N+]([O-])c1ccc(/C=N/N2CCN(c3ccncc3S(=O)(=O)N3CCCCC3)CC2)cc1
-0.8%,1,-1%,0%,Cc1nc2ccccc2n1/C(=N\S(=O)(=O)c1ccccc1)c1ccccc1
0.9%,6,26%,1%,COc1cc2[nH]c(=O)c(C(=O)NCCCN3CCOCC3)c(O)c2cc1OC
-0.1%,-8,-19%,5%,COc1ccc(-c2nc(-c3cccs3)no2)cc1
-3.6%,/,-12%,/,O=C1N[C@H](Cc2ccccc2)COC(=O)[C@@H](Cc2ccc(F)cc2)CC/C=C/C[C@H]1CC(=O)N(CCO)Cc1ccccc1
-0.4%,-8,8%,-3%,CCOc1ccc(S(=O)(=O)NCCOC)cc1C
?,-5,-30%,-21%,CCCCn1c(O)c(/C=C/C=C/C=Nc2ccccc2)sc1=S
-0.5%,/,7%,3%,Cc1cccc(NC(=O)CSc2nc3ccccc3c(=O)n2C)c1
2.0%,12,13%,-3%,CCCCCn1c(=O)[nH]c2cc(C(=O)NCCN(CC)CC)ccc2c1=O
3.7%,4,-3%,2%&0%,CC(=O)Nc1ccc(S(=O)(=O)NC2(C(F)(F)F)NC(=O)N(c3ccccc3F)C2=O)cc1 (stereo unspecified)
0.0%,/,4%,/,CC1(c2cccc(Br)c2)NC(=O)N(CC(=O)NC2CCCCC2)C1=O (stereo unspecified)
0.4%,7,21%,-101%,CC(=O)Nc1ccc2c(c1)ncn2-c1ccccc1
3.2%,/,-1%,/,O=C(C1CCN(S(=O)(=O)c2ccc(Cl)cc2)CC1)N1CCC1
-0.1%,0,8%,-3%,C=C(C)CNC(=S)N/N=C\c1ccc2c(c1)OCO2
2.7%,/,-1%,/,COc1ccc(C(=O)OCc2cc(=O)n3c(C)csc3n2)cc1F
2.6%,/,-10%,/,CCN(C(=O)COC(=O)c1ccccc1NCCO)C1CCS(=O)(=O)C1 (stereo unspecified)
-0.3%,/,1%,/,O=C(CCN1C(=O)c2ccccc2S1(=O)=O)N1CCN(c2ccc(F)cc2)CC1
5.1%,/,-3%,/,O=C(OCC(=O)c1ccc(Cl)cc1Cl)c1ccccn1
-3.2%,/,-11%,-11%,CCOc1ccc(C2c3[nH]c4ccccc4c3C[C@H]3C(=O)N(C4CC4)CC(=O)N23)cc1OC (stereo partly specified)
-1.5%,11,8%,-2%,Cc1ccc(CNC(=O)C(C)OC(=O)c2ccco2)cc1 (stereo unspecified)
?,9,?,2%,Cc1ccc(S(=O)(=O)c2c(N)n(NC(=O)C3CC3)c3nc4ccccc4nc23)cc1
3.8%,-3,13%,1%,COc1ccc(C2=NO[C@@H]3[C@@H]4C[C@@H]([C@H]5C(=O)N(C)C(=O)[C@@H]45)[C@H]23)cc1
0.3%,-8,8%,-1%,Cc1ccc(S(=O)(=O)N2CCCCC2)cc1NS(=O)(=O)c1cccc(C(=O)O)c1
6.0%,/,12%,1%,COc1ccc(N(CC(=O)Nc2c(C)n(C)n(-c3ccccc3)c2=O)S(=O)(=O)c2ccc(C)cc2)cc1OC
2.2%,3,1%,-18%,O=C(Nc1nnc(CCN2CCCCC2)s1)c1cccc(Cl)c1
?,4,?,0%,CCN(CC)c1ccc(/C=N/N=C(c2ccccc2)c2ccccc2)c(O)c1
?,1,0%,-17%,COc1ccccc1CNC(=O)c1ccc(N2CCOCC2)c([N+](=O)[O-])c1
-2.2%,/,12%,22%,Cc1c(CCC(=O)N[C@@H](C)C(=O)O)c(=O)oc2cc3oc4c(c3cc12)CCCC4
0.7%,-5,4%,-4%,CCCCn1c(-c2ccncc2)nc2c1c(=O)[nH]c(=O)n2CC(C)C
4.6%,10,-19%,23%,COc1ccc(NC(=O)CCC2CCCCC2)cc1S(=O)(=O)N1CCCCC1
-0.1%,-1,3%,3%,CCCC(c1nnnn1Cc1ccco1)N1CCN(c2ccccc2)CC1 (stereo unspecified)
0.6%,-6,-1%,0%,CCOc1ccc(NC2=NCC(=O)N2CCc2ccccc2)cc1
?,/,?,/,CN(C(=O)COC(=O)c1cnc(Cl)c(Cl)c1)C1CCCCC1

Further structures follow.
Rango complex inh,GLA inh pH 4.5,Rango release inh,miR-21 FLuc,Structure
?,5,-1%,-5%,O=C(Cc1cccs1)N1CCN=C1SCc1ccc(Br)cc1
0.6%,6,-2%,0%,Cc1cc(OCC(=O)Nc2cc(-c3nn4c(C)nnc4s3)ccc2C)ccc1Cl
0.0%,-3,2%,0%,Nc1cc2c(cc1[N+](=O)[O-])OCO2
-1.7%,1,0%,-2%,Cc1nn(-c2ccccc2)cc1C(c1c(N)[nH]c(=S)[nH]c1=O)c1c(N)[nH]c(=S)[nH]c1=O
-8.3%,/,-5%,3%,CCC(C(=O)NCCc1ccccc1OC)n1nc(C)c2c(C)n(-c3ccccc3)nc2c1=O (stereo unspecified)
-3.0%,-5,-29%,-5%,CCOC(=O)/C=C1\SCC(=O)N1CC(=O)c1ccc[nH]1
-2.8%,-10,14%,-7%,Cc1c(C(=O)OCC(=O)N(CCC#N)c2ccccc2)oc2c1ccc1ccccc12
1.4%,/,2%,-1%,COc1ccccc1OCCCCN1CCC(C)CC1
-1.9%,/,6%,/,COc1ccc(-c2ccccc2)cc1NC(=O)c1ccncc1
-5.7%,-1,-10%,-2%,O=C(CN1CCCC1)Nc1ccccc1Sc1ccccc1
-0.1%,7,34%,-5%,CCOC(=O)Cn1c(=N)n(Cc2ccccc2)c2ccccc21
-1.7%,/,-3%,/,Cc1noc(C)c1NC(=O)Nc1cccc2c1O[C@H](CN(C)S(=O)(=O)c1cccs1)[C@@H](C)CN([C@H](C)CO)C2=O
-0.7%,/,-18%,/,Cc1nc(Cc2nnc(SCC(=O)N3CCN(c4ccc(O)cc4)CC3)o2)cs1
0.5%,/,-6%,/,Cc1cc(NC(=O)COc2coc(CN3CCN(c4ccccc4)CC3)cc2=O)no1
2.0%,1,9%,-11%,COc1ccc(C(=O)c2ccc(N3CCOCC3)c([N+](=O)[O-])c2)cc1
-0.8%,/,1%,-9%,COc1ccc(OC)c(NC(=O)NC2CCCCCCC2)c1
0.9%,-1,1%,-1%,CC(=O)c1sccc1NC(=O)c1ccccc1C(=O)O
-0.2%,6,-9%,-20%,O=C1CCCN1CCCNc1ncnc2c1cnn2-c1ccc(Cl)cc1
-2.4%,/,-15%,-17%,COc1ccccc1OC(C)C(=O)Nc1ccc2c(c1)n(C)c(=O)n2C (stereo unspecified)
-3.5%,-4,10%,-1%,O=C(Nc1ccc(N2CCOCC2)cc1N1CCOCC1)c1ccc([N+](=O)[O-])cc1
-0.2%,/,-1%,2%,CCOC(=O)N1CCC(NC(=O)CSCc2nc(-c3ccccc3Cl)oc2C)CC1
0.4%,/,4%,/,COc1ccc2oc(C(=O)OC(C)C(=O)N(C)c3ccccc3)c(C)c2c1 (stereo unspecified)
1.1%,/,-16%,/,CCOc1ccc(C(=O)NCC(=O)NNC(=O)C2COc3ccccc3O2)cc1OCC (stereo unspecified)
?,-16,?,-80%,Oc1c(/C=N/c2ccccn2)sc2ccccc12
7.5%,5,-9%,1%,COc1ccc(-c2noc(CCCC(=O)NCc3ccco3)n2)cc1OC
0.1%,/,23%,/,O=C(NN(C(=O)c1ccccc1)c1cccs1)c1ccccc1
-2.8%,/,1%,-2%,COC(=O)C(CCSC)NC(=O)c1cn(-c2ccc(OC)cc2)c(=O)c2ccccc12 (stereo unspecified)
-0.2%,?,-22%,-33%,COc1ccc2cc3cc(C(=O)NC(C)C)oc3nc2c1
-3.1%,-3,14%,0%,Cc1ccc(CN2CCN(/N=C/c3cc(Br)ccc3O)CC2)cc1
-0.2%,-2,-10%,-8%,CC1(C(=O)NNC(=O)C2CCCCC2)CC1(Cl)Cl (stereo unspecified)
-3.1%,-13,3%,-4%,CC1(C)CC2(CC(c3ccccc3F)c3ccc(O)c(O)c3O2)NC(=S)N1 (stereo unspecified)
0.0%,5,-3%,-2%,CCOc1ccc(CNC(=O)C2CC(=O)N(C3CCCC3)C2)cc1OC (stereo unspecified)

4 entries already listed, arranged by SMILES length, smallest number first:
Rango complex inh,GLA inh pH 4.5,Rango release inh,miR-21 FLuc,Structure
-0.2%,?,-22%,-33%,COc1ccc2cc3cc(C(=O)NC(C)C)oc3nc2c1
?,-18,-23%,-1%,COCCNc1cc(N)c([N+](=O)[O-])cc1[N+](=O)[O-]
-0.3%,/,1%,/,O=C(CCN1C(=O)c2ccccc2S1(=O)=O)N1CCN(c2ccc(F)cc2)CC1
-4.7%,2,-5%,1%,COc1ccccc1N1CCN(C(=O)CN(C)S(=O)(=O)c2ccc3c(c2)c(=O)n(C)c(=O)n3C)CC1

These rows are one share of the data. The share of hits here may be higher or lower than overall.
